CSC inhib: blocks cancer stem cells; hit rate 1.1% among 300,000; inhibition, % at 7.5 µM; cancer stem cell-like cells viability, luminescence;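 active = mean at 75% or more and at least half the replicates too; tested in HMLE shEcad cells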;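 also: 0% = median of negative and 100% = median of positive control wells; the first replicate is given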
HIV Env fusion: blocks HIV Env-driven cell-cell fusion; hit rate 1.1% among 360,000; AID 651610; inhibition, % at 12.3 µM; HeLa-JRFL Env/CEM21 cell fusion, luciferase;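 active = mean replicate inhibition score of at least 50 and every replicate individually at or above 50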;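 also: 0% = plate neutral controls and 100% = maraviroc near 300 nM; one replicate is shown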
Rce1 inh: blocks yeast Ras-converting enzyme; calls only; hit rate 0.27% among 290,000; yeast membranes, quenched prenylated peptide cleavage fluorescence;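 active = fall in fluorescence gain of 50% or more versus controls, with final raw signal at or below 3038400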;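 also: plate controls were neutral control wells for no effect and wells lacking membranes for full effect; tested at 10 µM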
Target sequence (Q03530 whole entry, looked up): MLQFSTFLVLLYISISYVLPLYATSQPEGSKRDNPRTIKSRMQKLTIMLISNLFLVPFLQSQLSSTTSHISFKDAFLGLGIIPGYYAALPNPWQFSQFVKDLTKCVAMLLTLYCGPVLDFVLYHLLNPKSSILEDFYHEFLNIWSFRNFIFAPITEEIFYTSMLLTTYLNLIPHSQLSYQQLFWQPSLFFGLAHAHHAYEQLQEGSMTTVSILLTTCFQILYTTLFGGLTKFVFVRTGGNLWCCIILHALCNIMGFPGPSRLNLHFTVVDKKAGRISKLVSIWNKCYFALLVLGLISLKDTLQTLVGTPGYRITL
MT1-MMP act inh: inhibitors of human MT1-MMP activation | P50281 | GFP/RFP ratio change, % at 20 µM | HT1080 RFP-PRO-GFP cells, GFP/RFP ratio fluorescence, overnight; percent of plate control window, DMSO zero | hit rate 0.061% among 360,000;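 active = GFP/RFP ratio change of at least 30% with cell ATP level not reduced by more than half and red fluorescence within 50% of control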; also: strong numbers were not always called active
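Material – HT1080 RFP-PRO-GFP cells · Control set – DMSO wells and RFP-L50D-GFP cells · Incubation – overnight cell settling, then overnight compound exposure, 37 °C, 5% CO2 · Compound dosing – single-point 20 µM compound, 1% DMSO · Read-out – GFP/RFP fluorescence ratio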
eIF4H FP inh: inhibitors of RNA binding by human eIF4H. Q15056. eIF4H fluorescence polarization binding assay. inhibition, % at 35 µM. hit rate 0.94% among 290,000. AID 2012;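 active = 50% or more with normal probe brightness, or confirmed in later tests; about a fifth of its hits are not listed in these tables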;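 also: calls also rest on retests at 20 µM and on dose response follow-up; 0% = protein and probe with vehicle and 100% = probe without protein; strong numbers were not always called active; many hits fall short of the cut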
PABP FP inh: PABP-poly(A) binding inhibition. P11940. PABP-poly(A) RNA binding, fluorescence polarization. inhibition, % at 35 µM. hit rate 1% among 290,000;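 active = 50% or more with normal probe brightness, or confirmed in later tests; about a fifth of its hits are not listed in these tables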;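 also: calls also rest on retests at 20 µM and on dose response follow-up; controls were probe without protein and protein plus probe with vehicle; some compounds called inactive have numbers as strong as hits; many hits fall short of the cut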
Yeast UUG start: yeast start codon fidelity modulation; S. cerevisiae UUG-firefly luciferase reporter, luminescence/redox ratio; activity score, % at 18.7 µM; hit rate 0.13% among 350,000; AID 602363;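 active = replicate mean at a twofold rise or more, about +100% in these data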;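 also: firefly luciferase made from a UUG start codon reports start codon fidelity; reporter light over untreated wells divided by growth signal over untreated wells; some hits fall short of that in this replicate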
eIF4H FP inh retest: second read-out of eIF4H FP inh, no call of its own (marks repeat the call); inhibition, %; compound at 20 µM; confirmation average;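 mean of two retest wells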
PABP FP inh retest: second read-out of PABP FP inh, no call of its own (marks repeat the call); inhibition, %; compound at 20 µM; confirmation repeats;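 mean of two retest wells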
MT1-MMP act inh RFP: further read-out of MT1-MMP act inh, marked with its call; RFP signal change, %; measured here: RFP expression control read;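 0 = vehicle wells; hits needed this value within 50% of zero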
Active calls of the source: *.

What do the screens show for `COCC(=O)Nc1ccc(S(=O)(=O)NCC2CCCO2)cc1` (stereo unspecified)?
CSC inhib: -3; HIV Env fusion: 1; Rce1 inh: inactive; MT1-MMP act inh: 0; eIF4H FP inh: 8; PABP FP inh: 4; Yeast UUG start: -2; MT1-MMP act inh RFP: -2

What do the screens show for `COc1ccc(NC(=O)CC2C(=O)N(c3cccc(OC)c3)C(=O)N2Cc2ccco2)cc1` (stereo unspecified)?
CSC inhib: -5; HIV Env fusion: 16; Rce1 inh: inactive; MT1-MMP act inh: 4; eIF4H FP inh: -6; PABP FP inh: 7; Yeast UUG start: 7; MT1-MMP act inh RFP: 2

Results for O=C(NCc1ccncc1)c1ccc(Cl)c(S(=O)(=O)N2CCOCC2)c1 ?
CSC inhib: -6; HIV Env fusion: 42; Rce1 inh: inactive; MT1-MMP act inh: 2; eIF4H FP inh: 1; PABP FP inh: 3; MT1-MMP act inh RFP: 0

What do the screens show for `CCOc1ccccc1NC(=O)C(CC)Sc1nc2ccsc2c(=O)n1CCC(=O)O` (stereo unspecified)?
CSC inhib: 5; HIV Env fusion: 4; Rce1 inh: inactive; MT1-MMP act inh: 0; eIF4H FP inh: -2; PABP FP inh: 19; Yeast UUG start: 1; MT1-MMP act inh RFP: 0

How did CNC(=O)Cn1nc(-c2ccc(C)c(S(=O)(=O)N(C)C)c2)c2ccccc2c1=O do in these assays?
CSC inhib: -13; HIV Env fusion: 39; Rce1 inh: inactive; MT1-MMP act inh: -1; eIF4H FP inh: -8; PABP FP inh: -8; Yeast UUG start: 7; MT1-MMP act inh RFP: -2

How did COc1ccc2cc(C(N)=O)/c(=N/NC(=O)c3ccco3)oc2c1 do in these assays?
CSC inhib: -12; HIV Env fusion: -9; Rce1 inh: inactive; MT1-MMP act inh: 6; eIF4H FP inh: -2; PABP FP inh: 12; MT1-MMP act inh RFP: 9

Results for Cc1ccc(CNC(=O)C(C(=O)NCc2ccc(C)o2)c2ncc(C(F)(F)F)cc2Cl)o1 ?
HIV Env fusion: 0; Rce1 inh: inactive; MT1-MMP act inh: 0; eIF4H FP inh: 6; PABP FP inh: -3; MT1-MMP act inh RFP: 1

What do the screens show for `O=C(COC(=O)CC(NC(=O)c1ccccc1Cl)c1ccccc1)Nc1cccc(F)c1` (stereo unspecified)?
CSC inhib: 2; HIV Env fusion: -8; Rce1 inh: inactive; MT1-MMP act inh: 6; eIF4H FP inh: 0; PABP FP inh: 4; MT1-MMP act inh RFP: 4

What do the screens show for `O=C(CCNC(=O)N1CC(=O)Nc2ccccc21)NCc1ccc(Cl)cc1`?
HIV Env fusion: -5; MT1-MMP act inh: 0; Yeast UUG start: -7; MT1-MMP act inh RFP: 3

What do the screens show for `COc1cc(OC)c(/C=N/NC(=O)c2ccc([N+](=O)[O-])cc2)cc1Br`?
CSC inhib: -14; HIV Env fusion: 13; Rce1 inh: inactive; MT1-MMP act inh: 1; eIF4H FP inh: -10; PABP FP inh: -1; Yeast UUG start: -13; MT1-MMP act inh RFP: 0

Results for Cc1c(C(=O)O)cccc1-c1ccc(/C=N/n2cnnc2)o1 ?
HIV Env fusion: -10; Rce1 inh: inactive; MT1-MMP act inh: -3; eIF4H FP inh: 53*; PABP FP inh: 43*; Yeast UUG start: -19; eIF4H FP inh retest: 90*; PABP FP inh retest: 70*; MT1-MMP act inh RFP: 1

Results for CCOc1ccccc1NC(=O)c1cnccn1 ?
CSC inhib: -10; HIV Env fusion: 1; Rce1 inh: inactive; MT1-MMP act inh: -1; eIF4H FP inh: 5; PABP FP inh: 5; Yeast UUG start: -1; MT1-MMP act inh RFP: 2

How did CCOc1cnc(-c2ccccc2F)o1 do in these assays?
CSC inhib: -12; HIV Env fusion: -11; Rce1 inh: inactive; MT1-MMP act inh: 3; eIF4H FP inh: -5; PABP FP inh: 2; MT1-MMP act inh RFP: 0

Results for CCc1cccc(NS(=O)(=O)c2ccc3c(c2)NC(=O)CO3)c1 ?
CSC inhib: 0; HIV Env fusion: 0; Rce1 inh: inactive; MT1-MMP act inh: 5; eIF4H FP inh: -2; PABP FP inh: -1; Yeast UUG start: -8; MT1-MMP act inh RFP: -8

Results for Cc1cc(C)n2nc(SCC(=O)N3CCN(c4ccc(F)cc4)CC3)nc2n1 ?
CSC inhib: 1; MT1-MMP act inh: -2; Yeast UUG start: -10; MT1-MMP act inh RFP: 3

Results for O=C(COC(=O)C(Cc1ccccc1)NC(=O)c1ccco1)NC1CC1 (stereo unspecified) ?
CSC inhib: -12; HIV Env fusion: -14; Rce1 inh: inactive; MT1-MMP act inh: -2; eIF4H FP inh: -6; PABP FP inh: -1; Yeast UUG start: -16; MT1-MMP act inh RFP: -2

What do the screens show for `O=C(Nc1cccc(Cl)c1)Nc1ccc2c(c1)C(=O)OC2`?
CSC inhib: -19; HIV Env fusion: 4; Rce1 inh: inactive; MT1-MMP act inh: 0; eIF4H FP inh: -1; PABP FP inh: -1; MT1-MMP act inh RFP: -5

How did O=C(Cc1nn[nH]n1)NCc1ccccc1Cl do in these assays?
CSC inhib: 10; Rce1 inh: inactive; MT1-MMP act inh: 3; eIF4H FP inh: -2; PABP FP inh: -17; Yeast UUG start: -11; MT1-MMP act inh RFP: 5

What do the screens show for `CCOC(=O)c1oc2ccc(Br)cc2c1COC(=O)C1=COCCO1`?
CSC inhib: 7; HIV Env fusion: -12; Rce1 inh: inactive; MT1-MMP act inh: 4; Yeast UUG start: -9; MT1-MMP act inh RFP: 2

Results for CC1CCC(C(=O)NC(C(=O)N2CCN(c3ccccn3)CC2)C(C)C)CC1 (stereo unspecified) ?
CSC inhib: -7; HIV Env fusion: -53; Rce1 inh: inactive; MT1-MMP act inh: -4; eIF4H FP inh: -2; PABP FP inh: 14; Yeast UUG start: -4; MT1-MMP act inh RFP: -1

How did O=C(COC(=O)COc1ccc2ccccc2c1)NC1CCCc2ccccc21 (stereo unspecified) do in these assays?
CSC inhib: 18; HIV Env fusion: 28; Rce1 inh: inactive; MT1-MMP act inh: -7; eIF4H FP inh: -2; PABP FP inh: -8; Yeast UUG start: 36; MT1-MMP act inh RFP: 0

What do the screens show for `COc1ccc(N2CC(C(=O)Nc3ccc(S(=O)(=O)N4CCOCC4)cc3)CC2=O)cc1` (stereo unspecified)?
CSC inhib: -3; HIV Env fusion: 0; Rce1 inh: inactive; MT1-MMP act inh: 0; eIF4H FP inh: -6; PABP FP inh: -11; Yeast UUG start: 0; MT1-MMP act inh RFP: -2

How did CC1NC(=O)NC1CCCCC(=O)O (stereo unspecified) do in these assays?
CSC inhib: 7; Rce1 inh: inactive; MT1-MMP act inh: 4; eIF4H FP inh: -12; PABP FP inh: -8; Yeast UUG start: -8; MT1-MMP act inh RFP: -2

What do the screens show for `COC(=O)N/N=C(\C)c1ccccc1Br`?
CSC inhib: -9; HIV Env fusion: -46; Rce1 inh: inactive; MT1-MMP act inh: 3; eIF4H FP inh: -12; PABP FP inh: -6; Yeast UUG start: -24; MT1-MMP act inh RFP: 1

Next section, overlapping the part above by 2 compounds.
How did CC1NC(=O)NC1CCCCC(=O)O (stereo unspecified) do in these assays?
CSC inhib: 7; Rce1 inh: inactive; MT1-MMP act inh: 4; eIF4H FP inh: -12; PABP FP inh: -8; Yeast UUG start: -8; MT1-MMP act inh RFP: -2

What do the screens show for `COC(=O)N/N=C(\C)c1ccccc1Br`?
CSC inhib: -9; HIV Env fusion: -46; Rce1 inh: inactive; MT1-MMP act inh: 3; eIF4H FP inh: -12; PABP FP inh: -6; Yeast UUG start: -24; MT1-MMP act inh RFP: 1

Results for CCOc1[nH]n(-c2ccccc2)c(=O)c1C=NCC(=O)OC ?
CSC inhib: 2; HIV Env fusion: -11; Rce1 inh: inactive; MT1-MMP act inh: 5; eIF4H FP inh: 10; PABP FP inh: -4; Yeast UUG start: -3; MT1-MMP act inh RFP: 7

How did Cc1noc(C)c1C(=O)OC(C)C(=O)NC(C)c1ccc(Cl)cc1Cl (stereo unspecified) do in these assays?
CSC inhib: 7; MT1-MMP act inh: 1; Yeast UUG start: -12; MT1-MMP act inh RFP: -1

What do the screens show for `O=C(c1ccc(C(F)(F)F)cc1)C1CCCN(Cc2cccn2-c2ncccn2)C1` (stereo unspecified)?
CSC inhib: 2; HIV Env fusion: -3; Rce1 inh: inactive; MT1-MMP act inh: 0; eIF4H FP inh: -5; PABP FP inh: 5; Yeast UUG start: -14; MT1-MMP act inh RFP: 1

What do the screens show for `O=C(CCCOc1ccc(Cl)cc1Cl)N/N=C/c1ccc(Cl)cc1`?
CSC inhib: 4; HIV Env fusion: -32; Rce1 inh: inactive; MT1-MMP act inh: 2; eIF4H FP inh: -8; PABP FP inh: -5; Yeast UUG start: -2; MT1-MMP act inh RFP: 0

What do the screens show for `CCCS(=O)(=O)c1nc(S(=O)(=O)c2ccc(C)cc2)c(N2CCC3(CC2)OCCO3)s1`?
CSC inhib: -9; HIV Env fusion: 4; Rce1 inh: inactive; MT1-MMP act inh: -1; eIF4H FP inh: 1; PABP FP inh: 2; Yeast UUG start: 5; MT1-MMP act inh RFP: -3

Results for COc1cc(NC(=O)CN2C(=O)COc3ccc(S(=O)(=O)N4CCCC4)cc32)cc(OC)c1 ?
CSC inhib: -9; HIV Env fusion: 4; Rce1 inh: inactive; MT1-MMP act inh: -1; eIF4H FP inh: 1; PABP FP inh: 2; Yeast UUG start: 3; MT1-MMP act inh RFP: -2

Results for CCN1C(=O)/C(=C\N2CCN(C)CC2)SC1=S ?
CSC inhib: -11; Rce1 inh: inactive; MT1-MMP act inh: 9; eIF4H FP inh: 4; PABP FP inh: -1; Yeast UUG start: -21; MT1-MMP act inh RFP: 6

Results for CCOC(=O)c1cnn(Cc2ccccc2Cl)c1N ?
CSC inhib: -5; HIV Env fusion: 27; Rce1 inh: inactive; MT1-MMP act inh: -4; eIF4H FP inh: 6; PABP FP inh: 6; Yeast UUG start: -14; MT1-MMP act inh RFP: 0

How did CCOc1ccccc1C(=O)Nc1cc(C(=O)NCCc2ccccc2)ccc1Cl do in these assays?
CSC inhib: -3; HIV Env fusion: -114; Rce1 inh: inactive; MT1-MMP act inh: 5; eIF4H FP inh: -3; PABP FP inh: 4; Yeast UUG start: -9; MT1-MMP act inh RFP: 2

How did CC(C)(C)NC(=O)CN(Cc1ccccc1)S(=O)(=O)c1ccccc1 do in these assays?
CSC inhib: -19; HIV Env fusion: -22; Rce1 inh: inactive; MT1-MMP act inh: 1; eIF4H FP inh: -7; PABP FP inh: -1; Yeast UUG start: -13; MT1-MMP act inh RFP: 0

What do the screens show for `COC(=O)CN(C(=O)CSc1nnc(-c2cccc(OC)c2)o1)c1ccc(OC)cc1`?
CSC inhib: 10; Rce1 inh: inactive; MT1-MMP act inh: -2; eIF4H FP inh: -3; PABP FP inh: 8; Yeast UUG start: -11; MT1-MMP act inh RFP: -5

How did c1ccc(-c2nn3c(-c4ccco4)nnc3s2)nc1 do in these assays?
CSC inhib: 1; Rce1 inh: inactive; MT1-MMP act inh: -2; eIF4H FP inh: 23; PABP FP inh: 26; Yeast UUG start: 1; MT1-MMP act inh RFP: 1

Results for Clc1cccc(Cl)c1CO/N=C/c1cccs1 ?
CSC inhib: 1; HIV Env fusion: 10; Rce1 inh: inactive; MT1-MMP act inh: 2; eIF4H FP inh: 0; PABP FP inh: 8; MT1-MMP act inh RFP: 6

How did O=C(N/N=C/C=C/c1ccccc1)c1cccc(Br)c1 do in these assays?
CSC inhib: 22; Rce1 inh: inactive; MT1-MMP act inh: 12; eIF4H FP inh: 0; PABP FP inh: -2; Yeast UUG start: -22; MT1-MMP act inh RFP: 5

How did CC1(C)CCC(=O)N(c2ccccc2)C1=O do in these assays?
CSC inhib: -1; HIV Env fusion: 5; Rce1 inh: inactive; MT1-MMP act inh: 3; eIF4H FP inh: -7; PABP FP inh: -6; MT1-MMP act inh RFP: 2

Bioassay records (PubChem)
